D2 PAM = human D2 receptor positive allosteric modulation. hit rate 0.23% among 360,000. potentiation, % (test concentration not listed). DiscoveRx D2 beta-arrestin cells, luminescence, 90 min; 100% = 57 uM dopamine signal. P14416; active = potentiation of 50% or more; inconclusive = 30% to 50%; inactive = 30% or less;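 note: compound concentration not given in the record; tested on top of an EC20 dose of dopamine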
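PathHunter D2 cells, attached overnight at 37 deg C, received compound in DMSO plus dopamine at EC20 (50 nM final) for 90 min at 37 deg C. Beta-arrestin recruitment was read as luminescence after 1 h with detection reagent at ambient temperature.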
gsp ag = agonists of gsp mutant (McCune-Albright syndrome). gsp mutant cells, cAMP HTRF, 30 min; control for the full effect not named in the record. hit rate 0.13% among 340,000. Potency, µM (highest dose often 76.9 µM), for inactives: at the top dose activation (cAMP increase), most hits filed as activators. AID 624287; active = well fitted activation curve with a large enough effect; inconclusive = small, poorly fitted or top-dose-only effect, or another doubt; inactive = no such curve, though single readings can be large or run the other way; cell line not stated here;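 note: phosphodiesterase inhibitor Ro 20-1724 added with compounds to block cAMP breakdown; potency is the fitted concentration of half-maximal effect; nearly all actives have a fitted effect of over 60% in size; about a fifth of the inactives were tested at one dose only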
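Cells in DMEM/10% FBS with G418 were pretreated with compounds in DMSO plus […] (300 uM stock) for 30 min at 37C. cAMP was measured by HTRF (cAMP-d2 plus anti-cAMP antibody-K) after 30 min at room temperature.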
Six1-Eya2 inh = Six1/Eya2 interaction inhibition; Q15475+O00167; AlphaScreen GST-Six1/His-Eya2 binding, biochemical; hits give low values; control for the full effect not named in the record; AID 651725; activity change, % (test concentration not listed); hit rate 0.56% among 360,000; in the data active = activity change below about -65%; inconclusive = about -30% to -65%; inactive = above about -30%; note: % is set by controls: 0 for no effect and ±100 for the full control effect; compound concentration not given in the record
Target sequence (O00167 whole entry, looked up): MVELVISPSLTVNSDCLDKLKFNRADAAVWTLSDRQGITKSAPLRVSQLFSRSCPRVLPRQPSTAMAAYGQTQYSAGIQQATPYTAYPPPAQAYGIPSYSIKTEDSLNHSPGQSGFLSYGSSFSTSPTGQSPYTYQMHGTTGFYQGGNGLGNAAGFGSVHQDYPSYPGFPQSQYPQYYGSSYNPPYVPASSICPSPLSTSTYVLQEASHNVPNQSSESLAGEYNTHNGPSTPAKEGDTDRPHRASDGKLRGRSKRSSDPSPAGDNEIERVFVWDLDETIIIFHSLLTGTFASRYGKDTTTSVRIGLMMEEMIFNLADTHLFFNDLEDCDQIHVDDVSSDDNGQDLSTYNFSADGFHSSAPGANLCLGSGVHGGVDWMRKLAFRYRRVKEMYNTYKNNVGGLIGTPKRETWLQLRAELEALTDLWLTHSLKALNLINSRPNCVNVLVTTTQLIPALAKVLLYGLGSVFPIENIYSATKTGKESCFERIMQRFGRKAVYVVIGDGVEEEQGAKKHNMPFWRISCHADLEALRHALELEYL
Target sequence (Q15475 whole entry, looked up): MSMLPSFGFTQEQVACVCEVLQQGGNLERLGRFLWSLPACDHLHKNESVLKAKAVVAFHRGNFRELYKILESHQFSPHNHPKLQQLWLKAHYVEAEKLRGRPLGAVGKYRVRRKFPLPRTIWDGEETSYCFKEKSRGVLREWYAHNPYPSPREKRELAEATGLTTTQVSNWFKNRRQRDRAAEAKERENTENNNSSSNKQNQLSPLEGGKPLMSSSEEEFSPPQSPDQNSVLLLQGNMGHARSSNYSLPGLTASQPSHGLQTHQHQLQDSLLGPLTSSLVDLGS
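Homogeneous AlphaScreen proximity assay pairing GST-Six1 with His-tagged Eya2 (added as 5X mix: 250 nM and 500 nM) in 50 mM Tris pH 8.0, 300 mM NaCl, 1 mM TCEP. Glutathione donor and nickel acceptor beads; 1 h, 37 °C, dark.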
gsp antagonist = antagonizes gsp, the McCune-Albright syndrome mutation; gsp-mutant cells, cAMP HTRF, 30 min; control for the full effect not named in the record; Potency, µM (top dose mostly 76.9 µM), for inactives: at the highest dose activity change, negative = inhibition, actives largely listed as inhibitors; hit rate 0.4% among 340,000; AID 624288; active = falling curve of any shape with a large fitted effect; inconclusive = falling curve, mostly with a smaller effect; inactive = flat or rising curve; cell line not stated here;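 note: intracellular cAMP measured with PDE inhibitor Ro 20-1724 present during compound exposure; potency is the fitted concentration of half-maximal effect; % is set by controls: 0 for no effect and ±100 for the full control effect; nearly all actives have a fitted effect of over 65% in size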
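Cells, 2000/well, grown 16–24 h in DMEM 10% FBS with 0.5 mg/ml G418, then compounds plus […] (300 uM addition stock), 30 min at 37C. cAMP read by HTRF (cAMP-d2 and anti-cAMP antibody-K in lysis buffer) after 30 min RT.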
CtBP-E1A blk = CtBP/E1A binding inhibition; AlphaScreen GST-E1A/His-CtBP binding, 1536-well; hits give low values; control for the full effect not named in the record; activity change, % (test concentration not listed); hit rate 0.49% among 340,000; in the data active means activity change below about -65%; inconclusive means about -30% to -65%; inactive means above about -30%; note: % is set by controls: 0 for no effect and ±100 for the full control effect; compound concentration not given in the record
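Steps: dispense buffer (Tris pH 8.0, NaCl 300 mM, TCEP 1 mM, BSA, Tween 20); add 5X protein mix (GST-E1A, His-CtBP, 125 nM each); pin 23 nL compound; 2 h at 37 °C, dark; add 5X beads (50 ug/mL); 1 h; read.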
D2 ag = human D2 receptor agonism in beta-arrestin assay; P14416; DiscoveRx PathHunter D2 beta-arrestin, luminescence, 90 min; 100% = 57 uM dopamine signal; activation, % (concentration not given with the values); hit rate 0.084% among 360,000; in the data active = activation above about 40%; inconclusive = about 15% to 40%; inactive = below about 15%; note: compound concentration not given in the record; the text of the record calls up to 30% inactive
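DiscoveRx PathHunter D2 beta-arrestin cells (2,100/well) attached overnight, then compound-stimulated 90 min at 37 C in HBSS/10 mM HEPES/0.1% Tween-20 buffer; beta-galactosidase complementation read by luminescence after 1 h at ambient temperature. Dopamine 57 uM final (EC100) as control.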
The depositor's hits bear a star; ? = inconclusive; / = not tested or not shown; [ ] = another dose, or the depositor's remark.

1. CC1(C(=O)Nc2cccc(C(F)(F)F)c2)Cc2c(-c3cccc(C(F)(F)F)c3)ccnc2O1 (configuration not stated)
2. N#Cc1ccc(CSCC(=O)O)cc1
3. COc1ccc(C(=O)/C=C/c2ccc3c(c2)OCCO3)cc1
4. CN(C)S(=O)(=O)c1cccc(NC(=O)CCc2nc3cc(S(=O)(=O)N4CCOCC4)ccc3n2C)c1
5. COc1ccc(C2(c3ccc(OC)cc3)NC(=O)N(CC(=O)NC(C)C)C2=O)cc1
6. COc1ccc(-c2nc3ccc(Br)cn3c2Cc2cccc(Cl)c2)cc1OC
7. CC(C)C(=O)Nc1nnc(S(=O)(=O)N(C)c2ccc(Cl)cc2)s1
8. CC(=O)Nc1ccc(NC(=O)c2ccc(NC(=O)c3ccccc3)cc2)cc1

compound no.	1	2	3	4	5	6	7	8
D2 PAM	6.9	-3.4	-8.1	-7.8	-4.5	-8.0	-0.2	-13.7
gsp ag	/	-57.7%[inhibitor]	-0.9%[15.4 µM]	-6.0%	-19.9%	/	-0.9%[15.4 µM]	6.6%
Six1-Eya2 inh	-1.3	5.6	7.4	-1.2	4.7	-7.0	1.8	3.0
gsp antagonist	/	3.2%	-12.4%	5.0%	-6.3%	/	6.1%	-8.2%
CtBP-E1A blk	-0.3	9.1	0.2	-15.8	-1.5	-0.2	-24.5	6.1
D2 ag	-2.8	-2.1	-2.5	1.7	-2.2	-2.9	-0.5	-1.9

The list goes on; the last four above are carried over.
5. COc1ccc(C2(c3ccc(OC)cc3)NC(=O)N(CC(=O)NC(C)C)C2=O)cc1
6. COc1ccc(-c2nc3ccc(Br)cn3c2Cc2cccc(Cl)c2)cc1OC
7. CC(C)C(=O)Nc1nnc(S(=O)(=O)N(C)c2ccc(Cl)cc2)s1
8. CC(=O)Nc1ccc(NC(=O)c2ccc(NC(=O)c3ccccc3)cc2)cc1
9. Cc1cc(NC(=O)CCC(=O)N(c2ccccc2)C(C(=O)NC2CCCC2)c2cccs2)no1 (configuration not stated)
10. Cc1ccc2[nH]c3c(=O)n(N)c(C)nc3c2c1
11. COCCN(C(=O)COC(=O)c1cc2c(s1)CCCC2)c1c(N)n(Cc2ccccc2)c(=O)[nH]c1=O
12. CCN(CC)CCNC(=O)c1ccc(Sc2ccc(Cl)cc2)c(NC(C)=O)c1
13. Cc1ccc(NC(=O)c2ccc(F)cc2F)cc1NS(C)(=O)=O
14. COc1ccc(S(=O)(=O)Oc2cccc(C(=S)N3CCOCC3)c2)cc1
15. CC(C)Cc1nc(Cl)c(C#N)c2c1CCC2
16. COC(=O)c1ccccc1NC(=O)CCn1c(=O)oc2ccccc21

compound no.	5	6	7	8	9	10	11	12	13	14	15	16
D2 PAM	-4.5	-8.0	-0.2	-13.7	-3.2	0.7	19.7	-18.1	-28.4	-13.7	-6.2	-7.2
gsp ag	-19.9%	/	-0.9%[15.4 µM]	6.6%	0.0%	14.2%[15.4 µM]	-39.2%[inhibitor]	-7.4%[15.4 µM]	0.0%	1.5%	-12.1%	25.4%
Six1-Eya2 inh	4.7	-7.0	1.8	3.0	-3.2	4.3	-2.3	13.2	-3.9	-8.1	8.8	0.9
gsp antagonist	-6.3%	/	6.1%	-8.2%	-6.0%	-0.8%	3.8%	6.6%	7.8%	1.6%	-6.4%	5.4%
CtBP-E1A blk	-1.5	-0.2	-24.5	6.1	-0.2	-1.9	3.9	3.1	/	-2.7	6.8	-0.6
D2 ag	-2.2	-2.9	-0.5	-1.9	-4.4	-4.3	-1.4	-6.0	-6.6	1.7	-2.8	0.7

Individual results from above:
no. 9 in CtBP-E1A blk has -0.2
no. 16 in gsp ag has 25.4%
no. 10 in D2 PAM has 0.7
no. 14 in D2 PAM has -13.7

Other entries
17. C=CCNC(=O)c1cc2sccc2n1C
18. CCNC(=S)NNC(=O)CC(C)C
19. CSCC[C@H](NC(=O)[C@@H]1CSC2c3ccccc3C(=O)N21)C(=O)NCc1ccco1 (some centres not stated)
20. COc1ccc(NC(=O)CCCSc2ccccc2)cc1S(N)(=O)=O
21. Cc1cc(=O)nc2c3ccccc3n(CC(=O)NCCCN3CCCC3=O)n12
22. O=C(NCCS(=O)(=O)NC1CCCC1)c1ccc(F)cc1
23. O=C(O)c1cccc(NC(=O)c2ccccc2NC(=O)c2ccccc2F)c1
24. C[n+]1ccccc1/C=C/c1ccc2ncccc2c1

compound no.	17	18	19	20	21	22	23	24
D2 PAM	-8.0	-0.7	-2.0	-2.2	-8.0	-7.2	-2.5	-22.0
gsp ag	25.6%	-3.2%[15.4 µM]	12.9%	8.5%[15.4 µM]	22.2%	-1.7%[15.4 µM]	?	-35.5%[inhibitor]
Six1-Eya2 inh	2.3	5.5	-4.5	-0.7	0.0	2.1	-6.4	-0.8
gsp antagonist	7.3%	5.2%	3.7%	-1.0%	8.7%	6.9%	0.4%	-9.7%
CtBP-E1A blk	-15.3	4.8	2.0	6.4	0.0	2.7	10.2	/
D2 ag	-4.4	-3.0	0.1	-2.6	13.2	7.8	3.5	-5.8

25. CCCCNC(=O)c1ccccc1C(=O)NCCCC
26. COc1ccc(S(=O)(=O)NCc2ccccn2)cc1Br
27. CC(=O)NS(=O)(=O)c1ccc(NC(=O)c2cc(-c3ccc(C)cc3)nc3ccccc23)cc1
28. Cc1cc(C)nc(CC(N)=O)n1
29. COc1ccc(/C=N/NC(=O)CCSc2nc3ccccc3s2)cc1OC
30. Cc1cccc(C)c1NC(=O)Cn1c(=O)c(N2CCCCC2)c(N)n(C)c1=O
31. COc1ccc(C2c3c(ncn(CCCO)c3=N)Oc3ccc4ccccc4c32)cc1 (configuration not stated)
32. Cc1ccc(Nc2nc(OC(C(F)(F)F)C(F)(F)F)nc(N3CCOCC3)n2)cc1

compound no.	25	26	27	28	29	30	31	32
D2 PAM	9.7	-4.1	-7.9	29.1	-0.8	-8.1	-4.1	0.4
gsp ag	-36.9%[inhibitor]	-120.4%[inhibitor]	3.6%[15.4 µM]	-14.2%	-11.5%	-43.6%	-18.1%	-15.2%
Six1-Eya2 inh	11.4	-0.4	-3.0	-0.3	-19.2	-2.3	-9.5	11.7
gsp antagonist	1.5%	3.6%	-36.8%	1.0%	-7.3%	7.6%	-13.5%	-0.2%
CtBP-E1A blk	2.5	-1.7	11.0	8.4	-24.7	2.4	-10.4	6.9
D2 ag	-1.6	-2.9	-2.5	1.4	-0.6	-2.9	-1.6	1.1

33. Cc1ccc(S(=O)(=O)N2CCN(c3cccc(C)c3)CC2)cc1
34. COc1ccc(CS(=O)c2nc(C)cc(C)c2S(C)(=O)=O)cc1 (configuration not stated)
35. O=C(NCc1ccccc1)N1CCCC1
36. O=C(N/N=C\c1cc(Cl)ccc1O)c1ccc(S(=O)(=O)N2CCCCC2)cc1
37. CSc1ncc(C(=O)Nc2ccccc2F)c(-c2ccccc2)n1
38. Cc1cc2ccccc2n1CCNCc1c(C(=O)N2CCOCC2)nc2ccccn12
39. Cc1cccc(C2N=C(N)Nc3nc4ccccc4n32)c1 (configuration not stated)
40. COc1ccc(OC)c(C2C(C(=O)c3cccs3)=C(O)C(=O)N2CCN(C)C)c1 (configuration not stated)

compound no.	33	34	35	36	37	38	39	40
D2 PAM	-0.4	0.9	1.2	11.8	-1.9	-1.7	5.8	-10.4
gsp ag	-6.8%	8.9%	-29.1%	2.1%	6.7%	2.5%[15.4 µM]	-12.2%[15.4 µM]	-26.8%
Six1-Eya2 inh	-5.3	20.5	9.9	-5.0	-8.3	-15.7	-4.7	8.0
gsp antagonist	-25.1%	0.1%	0.8%	-1.6%	-9.7%	-10.3%	-0.4%	9.1%
CtBP-E1A blk	2.3	-0.4	/	-21.0	-7.4	-7.9	4.8	-7.7
D2 ag	-2.4	-3.7	-1.8	-8.3	1.3	2.9	-1.0	-2.8

41. CCc1ccc(NC(=O)CCNS(=O)(=O)c2cccc3nsnc23)cc1
42. Cc1ccc(O)c(NC(=O)COc2cc(C)ccc2C)c1
43. OCc1nc2ccccc2n1Cc1c(F)cccc1Cl
44. CCc1nnc(NC(=O)CSc2nnc(-c3ccccc3O)n2-c2ccc(C)cc2)s1
45. CC(OC(=O)c1ccccc1C(=O)N(C)c1ccccc1)C(=O)Nc1ccccc1[N+](=O)[O-] (configuration not stated)
46. CCO/C([O-])=N/c1sn[n+](C)c1C
47. COC(=O)CC1C(=O)NCCN1C(=S)Nc1ccccc1Cl (configuration not stated)
48. O=C(c1cc2ccccc2o1)c1cccs1

compound no.	41	42	43	44	45	46	47	48
D2 PAM	-6.9	24.2	-2.3	-13.0	5.2	0.7	3.9	-3.6
gsp ag	-18.5%	-2.3%	1.3%	-52.9%[inhibitor]	2.6%	2.3%	-1.9%[15.4 µM]	-1.5%
Six1-Eya2 inh	3.4	3.5	2.2	-1.7	-8.6	3.7	-0.8	12.0
gsp antagonist	1.3%	6.0%	11.1%	-18.7%	7.3%	3.5%	1.4%	-0.3%
CtBP-E1A blk	4.2	6.3	2.3	1.0	-0.2	/	6.4	3.7
D2 ag	1.4	-1.2	4.0	-2.2	1.5	-1.8	-1.0	2.3

49. Cc1ccc(S(=O)(=O)N2CCOCC2)cc1NC(=O)CN1CCC(Cc2ccccc2)CC1
50. O=C(Nc1nc2ccccc2[nH]1)c1ccccc1[N+](=O)[O-]
51. CCCCNC(NCCCC)=C(S(=O)(=O)CC)S(=O)(=O)CC
52. Cc1ccc(O)c(CNc2nc3ccccc3n2C)c1
53. COc1ccc2oc(C)c(C(=O)c3ccc(C)cc3)c2c1
54. FC(F)(F)c1cc(-c2cccs2)nc2cc(-c3ccccc3)nn12
55. CC(=O)Oc1ccc(-c2ccc(C(=O)NCCc3ccc(S(N)(=O)=O)cc3)cc2)cc1
56. CCN(CC)C(=O)Cn1cc(C(=O)C(=O)N2CCc3ccccc32)c2ccccc21

compound no.	49	50	51	52	53	54	55	56
D2 PAM	-18.1	9.2	-0.1	-2.8	0.6	-20.9	-4.3	-3.2
gsp ag	-24.0%	-8.6%[15.4 µM]	-27.2%	-11.6%	-13.8%	0.7%	?	-5.7%[15.4 µM]
Six1-Eya2 inh	-11.5	-1.5	2.1	-8.6	19.1	39.6	14.5	3.6
gsp antagonist	-22.9%	0.3%	-6.4%	-1.5%	-15.0%	10.5%	2.4%	-9.9%
CtBP-E1A blk	-4.0	8.2	9.8	-4.3	/	-3.3	0.8	-2.8
D2 ag	4.0	-2.2	-2.0	-2.7	-3.2	-2.6	-2.8	-4.2
